EPAC2 antag: human EPAC2 antagonism, validation; Potency, µM (titrated, usually from 112 µM), for the others: top-dose activity, negative = inhibition, most hits filed as inhibitors; EPAC2 Rap1B BODIPY-GDP exchange, fluorescence; Q8WZA2; 16,000 tested, 1.7% active; active = well fitted inhibition curve with a large enough effect; inconclusive = small, poorly fitted or top-dose-only effect; inactive = no such curve, though single readings can be large or run the other way;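 also: 100% = activation by cAMP agonist control; nearly all actives have a fitted effect of over 40% in size; the record reuses the description of the EPAC1 agonist screen; inactives centre near -10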
Target sequence (Q8WZA2 whole entry, looked up): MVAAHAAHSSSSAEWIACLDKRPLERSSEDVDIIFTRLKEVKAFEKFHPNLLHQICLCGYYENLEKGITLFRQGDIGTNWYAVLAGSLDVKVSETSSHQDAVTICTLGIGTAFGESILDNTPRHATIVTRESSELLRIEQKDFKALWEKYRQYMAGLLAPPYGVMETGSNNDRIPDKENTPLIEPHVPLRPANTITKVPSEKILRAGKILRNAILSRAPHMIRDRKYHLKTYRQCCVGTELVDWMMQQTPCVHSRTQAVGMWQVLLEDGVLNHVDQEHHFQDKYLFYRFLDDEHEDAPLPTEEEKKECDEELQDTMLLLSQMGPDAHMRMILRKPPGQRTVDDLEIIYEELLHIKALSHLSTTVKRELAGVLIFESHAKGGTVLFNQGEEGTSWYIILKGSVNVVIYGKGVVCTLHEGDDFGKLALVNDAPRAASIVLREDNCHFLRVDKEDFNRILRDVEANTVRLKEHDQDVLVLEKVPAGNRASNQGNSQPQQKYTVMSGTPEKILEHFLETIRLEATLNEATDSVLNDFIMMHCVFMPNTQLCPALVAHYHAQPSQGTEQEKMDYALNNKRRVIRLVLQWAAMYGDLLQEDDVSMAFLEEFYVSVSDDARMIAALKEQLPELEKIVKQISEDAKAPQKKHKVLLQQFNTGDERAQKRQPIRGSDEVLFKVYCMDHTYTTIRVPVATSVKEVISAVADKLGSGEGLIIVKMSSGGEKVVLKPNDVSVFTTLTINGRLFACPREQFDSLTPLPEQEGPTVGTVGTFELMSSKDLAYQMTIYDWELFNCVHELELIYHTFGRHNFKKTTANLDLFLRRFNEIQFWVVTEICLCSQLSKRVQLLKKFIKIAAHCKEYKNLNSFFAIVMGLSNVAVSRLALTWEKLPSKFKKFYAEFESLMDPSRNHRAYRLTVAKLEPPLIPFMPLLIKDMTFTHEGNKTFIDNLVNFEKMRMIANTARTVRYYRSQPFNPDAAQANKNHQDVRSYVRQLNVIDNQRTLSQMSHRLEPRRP
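Fluorescent exchange read-out: 100 nM EPAC2 with 250 nM RAP1B–BODIPY-GDP and 50 uM GDP; BODIPY-GDP release lowers fluorescence. Read at 480/540 nm every 5 min for 30 min at room temperature; normalized to 6.5 mM cAMP.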
* marks the source's active call; other numbers are inactive results; ? = inconclusive; & = joins results of further samples; ! = not confirmed by another sample; [ ] = dose if it differs, or a comment. Potency is read from the fitted curve at half-maximal effect. Only part of the results is shown; count on the stated rates, not on these rows.

SMILES | EPAC2 antag
O=S1(=O)CCOC[C@H](c2ccccc2)N1Cc1cccc(Cl)c1 | ?
CNCC[C@H](Oc1ccc(C(F)(F)F)cc1)c1ccccc1 | -14.2%&-19.6%
Cc1c(C(=O)NC(C)(C)C)sc2ncnc(NCCN(C)C)c12 | -19.3%
C#CCCCCCCCCCCCc1ccco1 | -21.8%
C=C1C(C2(C)C=CC(=O)C(C)(C)C2CC(=O)OC)CC[C@@]2(C)C(c3ccoc3)OC(=O)C3OC132 (some centres undefined) | -20.4%
COc1ccc2c(c1OC)OCC(c1ccc(OC)c(OC)c1OC)C2 (centres undefined) | -9.7%
O=C(c1cccc(F)c1)N1CCC2(CC1)CCN(C(c1ccccc1)c1ccccc1)CC2 | -25.9%
CC[C@H]1c2[nH]c3ccc(C(C)C)cc3c2[C@@H]2CCN3C(=O)CCC[C@H]1[C@H]23 | ?
CCCN(CCc1cccs1)[C@H]1CCc2c(O)cccc2C1 | -13.5%
NC(=O)c1ccc[n+]([C@@H]2OC(COP(=O)([O-])OP(=O)(O)OCC3OC(n4cnc5c(N)ncnc54)C(OP(=O)(O)O)C3O)C(O)C2O)c1 (some centres undefined) | 40.4%[activator]
Cc1c(C(=O)N(CCO)C(C)C)cnn1-c1ncc2c(n1)-c1ccccc1CCC2 | 8.5%
CCCCc1oc2ccccc2c1C(=O)c1cc(I)c(OCCN(CC)CC)c(I)c1 | 5.8%&-9.4%&-13.9%&-8.7%&-14.8%
CC1(C)S[C@@H]2[C@H](NC(=O)Cc3ccccc3)C(=O)N2[C@H]1C(=O)O | -7.1%
COc1ccc([C@@H]2CC(=O)c3c(O)cc(O)cc3O2)cc1O | -9.6%
CN(C)c1ccc(/C=C2\CCCCC2=O)cc1 | -18.3%
O=C1[C@H]2[C@H](C=CC[C@H]2C(=O)N2CCOCC2)CCN1Cc1ccc(Cl)c(Cl)c1 | -12.1%
CO[C@]1(NC(=O)C(C(=O)O)c2ccc(O)cc2)C(=O)N2C(C(=O)O)=C(CSc3nnnn3C)COC21 (some centres undefined) | -4.1%
CN(C)c1ncnc2ccc(-c3cccnc3)cc12 | -19.3%
COC(=O)c1c(OCc2cccnc2)cc(=O)n2c1CCN(C(=O)c1cccc(N(C)C)c1)CC2 | -9.5%
CN(Cc1ccco1)c1ncnc2ccc(-c3cccnc3)cc12 | -9.4%

Six neighbouring compounds out of the list so far, for reference:
SMILES | EPAC2 antag
C=C1C(C2(C)C=CC(=O)C(C)(C)C2CC(=O)OC)CC[C@@]2(C)C(c3ccoc3)OC(=O)C3OC132 (some centres undefined) | -20.4%
COc1ccc2c(c1OC)OCC(c1ccc(OC)c(OC)c1OC)C2 (centres undefined) | -9.7%
O=C(c1cccc(F)c1)N1CCC2(CC1)CCN(C(c1ccccc1)c1ccccc1)CC2 | -25.9%
CC[C@H]1c2[nH]c3ccc(C(C)C)cc3c2[C@@H]2CCN3C(=O)CCC[C@H]1[C@H]23 | ?
CCCN(CCc1cccs1)[C@H]1CCc2c(O)cccc2C1 | -13.5%
NC(=O)c1ccc[n+]([C@@H]2OC(COP(=O)([O-])OP(=O)(O)OCC3OC(n4cnc5c(N)ncnc54)C(OP(=O)(O)O)C3O)C(O)C2O)c1 (some centres undefined) | 40.4%[activator]

Individual results from the entries so far.
`Cc1c(C(=O)N(CCO)C(C)C)cnn1-c1ncc2c(n1)-c1ccccc1CCC2` – EPAC2 antag = 8.5%
`O=C1[C@H]2[C@H](C=CC[C@H]2C(=O)N2CCOCC2)CCN1Cc1ccc(Cl)c(Cl)c1` – EPAC2 antag = -12.1%
`C=C1C(C2(C)C=CC(=O)C(C)(C)C2CC(=O)OC)CC[C@@]2(C)C(c3ccoc3)OC(=O)C3OC132` (some centres undefined) – EPAC2 antag = -20.4%

Going on with the list:
SMILES | EPAC2 antag
CC(=O)c1ccc2c(c1)N(CCCN1CCC(CCO)CC1)c1ccccc1S2 | 8.7%[56.6 µM]
CN1CCC(OC(=O)C(Oc2ccc(Cl)cc2)Oc2ccc(Cl)cc2)CC1 | 6.7%
NS(=O)(=O)c1cc2c(cc1Cl)NC(CC1CCCC1)NS2(=O)=O (centres undefined) | -10.9%[56.6 µM]
CN(C(=O)CO)c1c(I)c(C(=O)NCC(O)CO)c(I)c(C(=O)NCC(O)CO)c1I (centres undefined) | 14.5%
COc1ccc(CCNC[C@H](O)c2ccc(O)cc2)cc1OC | 21.4%
COc1ccccc1-c1ccnc(-n2ncc(C(=O)N(C)CCc3ccccn3)c2C)n1 | 1.7%
Cc1cccc(CN2Cc3cccc4c3[C@H](C=CC4)CC2=S)c1 | ?
CCN(CC)C1CCN(C(=O)c2cnn(-c3nccc(-c4ccccc4OC)n3)c2-c2ccco2)C1 (centres undefined) | -9.4%
COCCn1c(=O)c(-c2cc(F)cc(F)c2)nc2cnc(OCc3ccccc3)nc21 | -19.7%
CC(C)(C)NCC(O)COc1ccc(NC(=O)NC2CCCCC2)cc1 (centres undefined) | -5.5%
COc1ccc2c(c1OC)C(=O)O[C@@H]2[C@H]1c2c(cc3c(c2OC)OCO3)CCN1C | -12.7%&-15.9%&-15.1%&-29.8%
Cc1nc(C)n(CC(=O)NCC2Cc3cc(-c4cccc(OC(F)(F)F)c4)ccc3O2)n1 (centres undefined) | ?
CC(C)c1ccc2c(c1)c(SC(C)(C)C)c(CC(C)(C)C(=O)O)n2Cc1ccc(Cl)cc1 | 50.1µM*!
Cc1cc2c(cc1C)N[C@]1(C[C@H]3CCC(=O)N4CC[C@@H](C1)[C@@H]34)C(=Nc1ccccc1C)N2 | -5.3%
N#CCCn1c(=O)c(-c2ccc(Cl)cc2)nc2cnc(Nc3ccccc3)nc21 | -3.0%
Cn1nnnc1SCC1=C(C(=O)O)N2C(=O)C(NC(=O)C(O)c3ccccc3)C2SC1 (centres undefined) | 3.0%
Cc1cc(C)c2nccc(/C=C/c3ccc(N(C)C)cc3)c2c1 | 45.4%[activator]
O=C(c1cnccn1)N1CCC[C@@]2(CCN(c3ccncc3)C2)C1 | -24.6%
O=C(c1cccc(F)c1)N1CCC2(CC1)CN(c1ccccc1)C2 | ?
CCN(CC)CCOC(=O)C(Cc1cccc2ccccc12)CC1CCCO1 (centres undefined) | -12.3%

Arranged by molar mass (rising): part of the list above
SMILES | EPAC2 antag
CCN(CC)CCOC(=O)C(Cc1cccc2ccccc12)CC1CCCO1 (centres undefined) | -12.3%
COc1ccc2c(c1OC)C(=O)O[C@@H]2[C@H]1c2c(cc3c(c2OC)OCO3)CCN1C | -12.7%&-15.9%&-15.1%&-29.8%
Cc1cc2c(cc1C)N[C@]1(C[C@H]3CCC(=O)N4CC[C@@H](C1)[C@@H]34)C(=Nc1ccccc1C)N2 | -5.3%

Next results follow.
SMILES | EPAC2 antag
COc1cc(=O)n2c(c1C(=O)NC(C)c1ccco1)CCN(Cc1cc(C)cc(C)c1)CC2 (centres undefined) | 8.5%
Cc1ccc(S(=O)(=O)/C=C\C#N)cc1 | -20.9%
CC1(C)S[C@@H]2[C@H](NC(=O)[C@H](NC(=O)N3CCN(S(C)(=O)=O)C3=O)c3ccccc3)C(=O)N2[C@H]1C(=O)O | 44.0%[activator]
COc1cc2c(c(OC)c1OC)-c1ccc(OC)c(=O)cc1[C@H](NC(C)=O)CC2 | -10.3%
COc1cccc(CNC(=O)c2c(OC)cc(=O)n3c2CCN(C(=O)c2cc(C)ccc2C)CC3)c1 | -14.7%
O=C1CC2(CCCC2)CC(=O)N1CCCCNCC1COc2ccccc2O1 (centres undefined) | -0.3%
CC(=O)c1ccc(-c2cc(F)cc3c2OC(CNC(=O)C(C)N2CCOCC2)C3)s1 (centres undefined) | -9.6%
COc1ccc(C(=O)/C=C/c2ccccc2)cc1 | -31.5%
O=C(NCc1nnc2n1CCN(Cc1cc3c(cc1Cl)OCO3)CC2)c1cccc(F)c1 | 11.0%
COC(=O)c1cc(CNC(=O)c2ccccc2F)cc(NC(=O)c2ccccc2OC)c1 | ?
Cc1ccc2occ(CN3CCOc4ccc(C(C)(O)COc5ccccc5)cc4C3)c(=O)c2c1 (centres undefined) | ?
Cc1cc(C)c2cccnc2c1O | 3.2%
O=C(c1ccncc1)N1CCC2(CC1)CCN(c1ccccn1)CC2 | -22.9%
COc1ccc(-c2nc3cnc(N4CCOCC4)nc3n(Cc3cccc(OC)c3)c2=O)cc1 | -13.5%
COc1ccc(NC(=O)N2CCCC3(CCN(S(=O)(=O)c4ccccc4)CC3)C2)cc1 | -27.4%
CCNc1ncc2nc(-c3cn(C)c4ccccc34)c(=O)n(C[C@H]3CCCO3)c2n1 | -9.9%
CCC(C(=O)OCCOCCN(CC)CC)c1ccccc1 (centres undefined) | 25.4%
CC1CC(OC(=O)C(O)c2ccccc2)CC(C)(C)C1 (centres undefined) | ?
O=C(c1cnccn1)N1CCC2(CC1)CCN(c1ccccc1)CC2 | -15.8%
Cc1cc(NC2CCCCC2)nc(-n2nc(C)cc2C)n1 | ?
CO/S(=N\S(=O)(=O)c1ccc(Cl)cc1)c1ccc([N+](=O)[O-])cc1 (centres undefined) | -7.4%
CCN(CC)Cc1cc(Nc2ccnc3cc(Cl)ccc23)ccc1O | -5.2%&-15.2%[56.6 µM]
CC(C)(C)C(=O)Oc1ccc(S(=O)(=O)Nc2ccccc2C(=O)NCC(=O)O)cc1 | 3.1%
CCOc1ccc(NC(C)=O)cc1 | -5.7%&-5.1%
NC(Cc1ccc(O)c(O)c1)C(=O)O (centres undefined) | ?
O=C(OCc1ccccc1)c1ccc(O)cc1 | -30.8%
COc1ccc(OC)c2c(/C=C/c3c(C)[nH]c4ccccc34)ccnc12 | -4.5%
CN(CC(=O)O)c1ccc(C=O)cc1 | ?
CCn1c(-c2cccc(OC)c2)nc2cc(NC(C)=O)cc(C(=O)N(C)CC3COCCO3)c21 (centres undefined) | -8.7%
CO[C@@]1(NC(=O)Cc2cccs2)C(=O)N2C(C(=O)O)=C(COC(N)=O)CSC21 (some centres undefined) | 36.0%[activator]
CS(=O)(=O)Nc1cccc(-c2cncnc2-n2ccnc2)c1 | ?
COc1ccc(Oc2ncc3nc(C)c(=O)n(CCc4ccccc4)c3n2)cc1 | -26.3%
O=c1c(-c2cc(F)cc(F)c2)nc2cncnc2n1Cc1ccccc1Cl | -12.9%
COCCn1c(=O)c(-c2ccc(F)cc2)nc2cncnc21 | -19.8%
O=C(c1cnccn1)N1CCC2(CC1)CN(c1ccncc1)C2 | -27.7%
CC1(C)S[C@@H]2[C@H](N3C(=O)C(c4ccccc4)NC3(C)C)C(=O)N2[C@H]1C(=O)O (some centres undefined) | 52.2%[activator]
CCCCCCCCCCCCCCCCCC(=O)[O][Al] | 15.7%
C=C[C@@H]1c2ccccc2N(S(=O)(=O)c2ccc(C)cc2)[C@H](c2ccccc2)C1(C#N)C#N | -32.0%

Among those listed so far, these contain a tert-butyl group:
SMILES | EPAC2 antag
Cc1c(C(=O)NC(C)(C)C)sc2ncnc(NCCN(C)C)c12 | -19.3%
CC(C)(C)NCC(O)COc1ccc(NC(=O)NC2CCCCC2)cc1 (centres undefined) | -5.5%
CC(C)c1ccc2c(c1)c(SC(C)(C)C)c(CC(C)(C)C(=O)O)n2Cc1ccc(Cl)cc1 | 50.1µM*!
CC(C)(C)C(=O)Oc1ccc(S(=O)(=O)Nc2ccccc2C(=O)NCC(=O)O)cc1 | 3.1%

Assay outcomes: PubChem BioAssay, National Center for Advancing Translational Sciences (NCATS)
